VDR inh = Inhibitors of the vitamin D receptor (VDR): qHTS. 400,000 compounds, 0.93% hits. AID 504847, 2011. Vitamin D3 receptor (Homo sapiens), P11473. Potency, µM, without a hit: max response, negative = inhibition, most hits filed as inhibitors. VDR-SRC2-3 peptide fluorescence polarization, 2 h; active = well fitted inhibition curve with a large enough effect; inconclusive = small, poorly fitted or top-dose-only effect, or another doubt; inactive = no such curve, though single readings can be large or run the other way; note: series mostly up to about 120 µM
Target sequence (P11473 whole entry, looked up): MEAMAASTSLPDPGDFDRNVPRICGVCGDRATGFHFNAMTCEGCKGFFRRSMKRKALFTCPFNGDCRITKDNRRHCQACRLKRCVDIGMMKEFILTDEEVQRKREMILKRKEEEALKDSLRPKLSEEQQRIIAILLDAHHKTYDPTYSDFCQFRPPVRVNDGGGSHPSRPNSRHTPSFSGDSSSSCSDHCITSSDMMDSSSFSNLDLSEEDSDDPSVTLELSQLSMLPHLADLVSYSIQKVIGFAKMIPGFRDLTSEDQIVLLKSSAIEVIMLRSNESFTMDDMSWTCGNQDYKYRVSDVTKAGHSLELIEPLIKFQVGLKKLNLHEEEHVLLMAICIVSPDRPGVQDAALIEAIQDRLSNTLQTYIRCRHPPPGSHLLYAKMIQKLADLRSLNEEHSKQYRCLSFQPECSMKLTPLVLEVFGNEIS
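Reagent solutions, kept cold and dark, are dispensed first; compounds are then pinned in at 23 nl, plates briefly spun, and incubated 2 h at ambient temperature. Inhibition of VDR–SRC2-3 peptide binding is read by fluorescence polarization.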
Active calls of the source: *; ? = inconclusive; & = joins results of further samples. % is set by controls: 0 for no effect and ±100 for the full control effect; potency is the fitted concentration of half-maximal effect. The list is partial; the hit share may differ from the screen's.

SMILES | VDR inh
Cc1ccc(CNc2ncnc3nc[nH]c23)cc1 | -13%
COC(=O)CC1c2ccccc2C(Cc2ccc3c(c2)OCO3)=C(C)N1C(=O)OC (stereo not given) | -2%
CCN1C(=O)/C(=C2/C=Cc3ccccc3N2C)OC1=S | 9%
Cc1cccc(NC(=O)c2ccc(NCC3CCCO3)c([N+](=O)[O-])c2)c1 (stereo not given) | 3%
O=C(O)CCN1C(=O)/C(=C/c2ccc(-c3nc4ccccc4s3)o2)SC1=S | ?
COc1ccc(C(C)C)cc1S(=O)(=O)NCCc1c(C)[nH]c2ccc(C)cc12 | 5%
CCOc1cc(C2CC(=O)Nc3cc4c(cc32)OCCO4)ccc1O (stereo not given) | -18%
O=C(O)c1ccc(Cn2cnc3c(=O)[nH]cnc32)cc1 | -12%
COc1ccc(CN(C)C2CCCCC2)cc1 | ?
CSCCC(NC(=O)c1cccc(C)c1)C(=O)OCC(=O)Nc1c(C)nn(-c2ccccc2)c1C (stereo not given) | 1%
Cc1ccc(S(=O)(=O)c2ncccc2[N+](=O)[O-])cc1 | ?
COC(=O)c1sc2cc(=O)n(-c3cccc(C(F)(F)F)c3)nc2c1O | -9%
CCO/C(C)=C1\N=C(c2ccc(Cl)cc2)OC1=O | -7%
O=C(Nc1ccccc1C(=O)Nc1ccc2c(c1)OCO2)c1ccco1 | 29%
CCOC(=O)N1CCC(NC(=O)c2ccc(OC)c(CN3CC(=O)N4CCCC4C3=O)c2)CC1 (stereo not given) | 10%
CC(=O)c1cccc(N2Cc3ccccc3C2=NC(=O)CCl)c1 | -30%
O=C(CSc1nccc(=O)[nH]1)Nc1ccc(Oc2ccccc2)cc1 | -8%
Cc1ccc(-c2nnc(NC(=O)Cc3ccc(F)cc3)o2)c(C)c1 | -1%
CCn1nc(C(=O)NNC(=O)COc2ccc(OC)cc2)c2ccccc2c1=O | -7%
CCOC(=O)c1ccccc1NC(=O)N1CCC(CN2CCOCC2)CC1 | 13%
Cn1cc(C(=O)N/N=C/c2cccc(O)c2)ccc1=O | 6%
O=C(NC1CCN(C(=S)Nc2ccccc2Cl)CC1)C1CCCCC1 | -10%
CC(=O)Nc1ccc(C(=O)OCC(=O)c2cccc([N+](=O)[O-])c2)cc1 | ?
CCC(C)NC(=O)CN1C(=O)CSc2ccc(S(=O)(=O)N3CCCC3)cc21 (stereo not given) | -9%
Cc1ccc(S(=O)(=O)Nc2cccc(C(=O)NCC(c3ccco3)N3CCCC3)c2)cc1F (stereo not given) | -2%
CC(C)(C)N1C(=O)[C@H]2[C@@H](c3ccc(Br)cc3)N3C(=O)N(c4cccc(Cl)c4)C(=O)[C@@]3(C)[C@H]2C1=O | -9%
CCn1cc(CCC(=O)NCCc2ccccc2)c2ccccc21 | 6%
CCCc1nnc(NC(=O)CCC(=O)NC2CCCCC2)s1 | 2%
Cc1ccc2cc(CCNS(=O)(=O)c3ccc(F)cc3)c(=O)[nH]c2c1 | -11%
C[C@@H]1O[C@@H](O[C@H]2[C@H](O[C@H]3C[C@]4(C)C(C[C@@H](O)C5C([C@]6(C)CC[C@@H](C(C)(C)O)O6)CC[C@]54C)[C@@]4(C)CC[C@H](O)C(C)(C)C34)O[C@H](CO)[C@@H](O)[C@@H]2O)[C@H](O)[C@H](O)[C@H]1O (stereo not given in full) | -22%

Of the compounds above, two have a COOH group:
SMILES | VDR inh
O=C(O)CCN1C(=O)/C(=C/c2ccc(-c3nc4ccccc4s3)o2)SC1=S | ?
O=C(O)c1ccc(Cn2cnc3c(=O)[nH]cnc32)cc1 | -12%

(cont.)
SMILES | VDR inh
Cc1nnnn1/C(=C\c1ccccc1)C(=O)OCC(=O)Nc1cccc(S(=O)(=O)N(C)C)c1 | 45µM*
CCC1=C(OC(=O)N(CC)CC)N2C(=O)OC(=NCCc3c[nH]c4ccccc34)[C@]2(C)[C@H]2C1=CC[C@H]1C(=O)N(C)C(=O)[C@H]12 | 14%
CC(C)c1ccc2c(c1)CC[C@H]1[C@](C)(CN)CCC[C@]21C | 1%&-1%
COc1cc2c(cc1OC)CN(CC(O)c1ccccc1)CC2 (stereo not given) | -21%
CC(NC(=O)c1cccc(S(=O)(=O)N2CCc3ccccc32)c1)c1ccco1 (stereo not given) | 0%
O=C(COC(=O)c1ccccn1)Nc1cc(Cl)ccc1Cl | 10%
CC(=O)N1C(=O)N(C)C2C1N(C(C)=O)C(=O)N2C (stereo not given) | 2%
COc1ccc(CCNC(=O)C/C(C)=N/NC(=O)c2cnccn2)cc1 | -16%
CN(C)/C=C/C(=O)c1nnn(C2CCCCC2)c1NC1CCCCC1 | -15%
COC(=O)CN1C(=S)N(c2ccccc2)C(=O)C1CC(=O)Nc1ccc(Cl)cc1 (stereo not given) | 1%
O=[N+]([O-])c1cc(CN2CCCCCC2)ccc1O | -18%
COc1cccc(NC(=O)C(=O)NCC(c2ccc3c(c2)OCO3)N2CCOCC2)c1 (stereo not given) | 1%
CC(=O)c1ccc(NC(=O)c2sc(-n3nc(C)c(CCC(C)C)c3C)nc2C)cc1 | -6%
C=CCn1c(COc2ccc(Cl)cc2)nnc1SCC(=O)c1c(N)n(C)c(=O)n(C)c1=O | 7%
COc1ccc(CNC(=O)c2cc(Nc3ccc(OC)cc3OC)nc3ccccc23)cc1 | -16%

Filtered by structure, the entries above containing an NH in an aromatic ring (6)
SMILES | VDR inh
Cc1ccc(CNc2ncnc3nc[nH]c23)cc1 | -13%
COc1ccc(C(C)C)cc1S(=O)(=O)NCCc1c(C)[nH]c2ccc(C)cc12 | 5%
O=C(O)c1ccc(Cn2cnc3c(=O)[nH]cnc32)cc1 | -12%
O=C(CSc1nccc(=O)[nH]1)Nc1ccc(Oc2ccccc2)cc1 | -8%
Cc1ccc2cc(CCNS(=O)(=O)c3ccc(F)cc3)c(=O)[nH]c2c1 | -11%
CCC1=C(OC(=O)N(CC)CC)N2C(=O)OC(=NCCc3c[nH]c4ccccc34)[C@]2(C)[C@H]2C1=CC[C@H]1C(=O)N(C)C(=O)[C@H]12 | 14%

(listing goes on)
SMILES | VDR inh
COc1ccc(Cl)c2sc(NC(=O)c3ccc(S(=O)(=O)N4CCOCC4)cc3)nc12 | 11%
O=C1c2ccccc2CN2C(=O)c3ccccc3CN12 | -3%&12%
COc1ccc2nc(N3CCN(C(=O)c4ccco4)CC3)sc2c1 | 0%
CCN(CC)S(=O)(=O)c1cccc(C(=O)Nc2nncs2)c1 | 6%
CCCOC(=O)c1cccc(Nc2nc(CCC)cc(=O)[nH]2)c1 | -8%
COc1ccccc1NC1=C(NC(C)=O)C(=O)c2ccccc2C1=O | -28%
CN(c1ccccc1)c1ncnc2c1ncn2C | -9%
COc1ccccc1N1CCN(C(=O)CSc2ncnc3c2cnn3-c2ccc(C)c(C)c2)CC1 | -6%
CCOc1ccc(Oc2cc(N)cc([N+](=O)[O-])c2)cc1 | 6%
Cc1cccc(NC(=O)CCCn2nc(C)c3c(C)n(-c4ccccc4)nc3c2=O)c1C | -5%
Cc1ccc(S(=O)(=O)N(C)C)cc1NC(=O)COc1ccc(-c2nnco2)cc1 | 6%
O=C(Cc1c[nH]c2ccccc12)N/N=C/c1cccc(F)c1 | 0%
Cc1ccc(O)c(NC(=O)c2onc(C)c2Cl)c1 | -12%
CSc1ccccc1C(=O)NCC(c1ccco1)N(C)C (stereo not given) | 13%
CCCCCCSC1=C(C#N)C(c2ccc(C)o2)CC(=O)N1 (stereo not given) | -10%
N=c1n(CCN2CCCC2)c2ccccc2n1CC(O)c1ccc(Cl)c(Cl)c1 (stereo not given) | 13%
C=CCc1c(C)nc2c(C)cccc2c1SC(=N)N | 3%
COc1ccc(CNC(=O)c2sc(=S)n(-c3ccc(OC)cc3)c2N)cc1 | ?
Cc1oc2ccc(O)c(CN3CCCCCC3)c2c1C(=O)Nc1cccc(Cl)c1C | -1%
Nc1c(C(=O)NCc2ccccc2)c2nc3ccccc3nc2n1CCCN1CCOCC1 | 5%
COc1cccc(NC(=O)Cn2nnc(C(=O)NCc3ccc4c(c3)OCO4)c2N)c1 | 2%&4%
COn1c(C)c(C)c2c3nonc3ccc21 | ?
O=C(NC1CC2CCC(C1)N2C(=O)NC1CCCCC1)NC12CC3CC(CC(C3)C1)C2 (stereo not given) | -9%
O=C(COc1ccccc1Cl)Nc1ccc(CN2CCCCC2)cc1 | 3%
Brc1ccc(Nc2nc(-c3cccnc3)cs2)cc1 | 4%
CC(C)CCNC(=O)c1c[nH]c2ccc(S(=O)(=O)N3CCOCC3)cc2c1=O | 4%
O=C(COc1ccc(-c2nnco2)cc1)NC1CCCc2ccccc21 (stereo not given) | -4%
CCOCCCNC(=O)c1ccc(CS(=O)(=O)Cc2ccc(C)cc2)o1 | 1%
Nc1nc(NCC2CCCO2)nc(Nc2ccc(Cl)cc2)c1[N+](=O)[O-] (stereo not given) | 6%
CC(=O)NC1=C(Nc2ccc(N(C)C)cc2)C(=O)c2ccccc2C1=O | 50µM*
NC(=O)c1ccc(N2CCN(S(=O)(=O)c3ccccc3)CC2)c([N+](=O)[O-])c1 | 3%
CC(C)CN(CC(C)C)c1nc(-c2ccc(Cl)cc2)nc2ccccc12 | -9%
CCOc1ccc(NC(=O)C2CCN(S(=O)(=O)c3cccs3)CC2)cc1 | -8%
CCOC(=O)Cn1nc(C)n(-c2ccccc2)c1=O | 6%
CC(C)(C)C(=O)Oc1cc(N)n(S(=O)(=O)c2ccc(F)cc2)n1 | 19%
O=C(Nc1ccc([N+](=O)[O-])cc1)c1cn(-c2ccccc2)nc1-c1cc2ccccc2o1 | -13%
O=C1CCCCC2CCCCN12 (stereo not given) | 8%
Cc1cc(C)nc(SCCS(=O)(=O)Cc2ccccc2)n1 | 4%
NNC(=O)c1csc(CS(=O)(=O)c2ccc(Cl)cc2)n1 | -4%
CCCCCCCC#Cc1ccccc1/C=N/S(=O)c1ccc(C)cc1 (stereo not given) | ?
O=C(NCc1cccs1)C1CCN(C(=O)NCc2ccccc2)CC1 | 8%
NC(=O)c1ccccc1N1CCCCC1 | 3%
CCc1nnc(NC(=O)c2ccc(OC)cc2OC)s1 | -2%
CC1CC(C)(C)NC(=S)N1CCCC(=O)Nc1ccc2c(c1)OCCO2 (stereo not given) | -2%
CSC1=NC(C)(C)C=C(/C=C/c2ccc(Cl)cc2)N1 | 32µM*
CCN(c1ccccc1)c1nnc(NC(=O)Nc2ccc(C)cc2)s1 | 11%
CCOc1ccccc1OCCOCCOc1c(Cl)cccc1Cl | 0%
CC(C)C(=O)Nc1nnc(S(=O)(=O)N2CCc3ccccc32)s1 | 5%&3%
Cc1cccc(NC(=O)Nc2cccc(Oc3c(F)c(F)c(F)c(F)c3F)c2)c1 | 19%
Cc1cc(Oc2ccc(Cl)cc2)nc(-c2ccccc2O)n1 | -11%
Cc1ccc(S(=O)(=O)CCC(=O)OC(C)C(=O)NC2CCCCC2C)cc1 (stereo not given) | -23%
Cc1cccc(OCc2nnc(SCC(=O)O)n2-c2ccccc2)c1 | 8%
O=C(NC1CCCCC1)C(=S)NCCc1ccccc1 | ?
CCN(C(=O)CSc1ncccn1)C1CCS(=O)(=O)C1 (stereo not given) | 6%
NS(=O)(=O)c1ccc(CCNC(=O)c2cnc(Cl)c(Cl)c2)cc1 | 10%
CC(C)[C@H](NC(=O)N1CC(=O)Nc2ccccc21)C(=O)N[C@H](C(=O)O)c1ccccc1 | -27%
O=Nc1c(O)c2ccccc2c2ccccc12 | -4%
COc1ccc(NC(=S)N(CCc2c(C)[nH]c3ccc(C)cc23)Cc2cccnc2)cc1 | -5%
CC(C)Cc1nnc(NC(=O)CCC(=O)NC2CC2)s1 | -4%
O=C(CSc1nnnn1-c1cccc2c1CCCC2)N1CCCCC1 | 0%
The listing continues:
SMILES | VDR inh
CC1=C(c2ccc(Cl)cc2)S(=O)(=O)N=C1N1CCC(C(=O)NCc2ccccc2F)CC1 | 0%
O=c1nc(N2CCOCC2)ccn1-c1nc(-c2ccccc2)sc1-c1ccccc1 | -9%
COc1ccc(C2/C=C\CN(C(=O)c3ccc(C)cc3)C(C)C(=O)N2Cc2ccc(F)cc2)cc1 (stereo not given) | -3%
CCc1noc(C)c1C(=O)N1CCN(S(=O)(=O)c2ccc(Br)cc2)CC1 | -18%
CSS(=O)(=O)c1cccc2cccnc12 | 11µM*
CC(OC(=O)c1cccc(NS(C)(=O)=O)c1)C(=O)Nc1ccc2c(c1)OCO2 (stereo not given) | -9%
CCOC(=O)C(CCCOc1ccc(C(C)CC)cc1)C(=O)OCC (stereo not given) | 3%
COc1cc(C(=O)OCC#N)ccc1OCc1c(C)noc1C | 17%
CC(C)OCCCNC(=O)c1ccc(CS(=O)(=O)c2cccc(C(F)(F)F)c2)o1 | 2%
CCOCCCNC(=O)c1ccc2c(=O)n(Cc3ccc(OC)cc3)c(=O)[nH]c2c1 | -7%
CC1(C)Oc2ccc3ccc(=O)oc3c2/C(=C/NNC(N)=O)C1=O | -20%
CC(C)(C)c1ccc(S(=O)(=O)N2CC(C(=O)O)Oc3ccc(Cl)cc32)cc1 (stereo not given) | -20%
CN(C)CC(C)(C)CNS(=O)(=O)c1ccc(Cl)cc1 | 1%
CC1=CC(=O)[C@@H]2C[C@H]1C2(C)C | -11%
CCOc1ccc(CNC(=O)c2ccc3c(c2)sc2nc(-c4ccccc4)cn23)cc1 | 11%
O=[N+]([O-])c1ccc(OCCn2cncn2)cc1 | -11%
Cc1ccc(C2=NOC(C)(c3nnc(-c4ccccc4)o3)C2)cc1 (stereo not given) | -11%
O=C(Nc1ccccc1Oc1ccccc1)C1=COCCO1 | 0%
O=C(C(c1ccccc1)c1ccccc1)N1CCCc2ccccc21 | -5%
CCN(CC)S(=O)(=O)c1cccc(NC2=NCC(C)S2)c1 (stereo not given) | 26%
O=C(Nc1cccnc1)Nc1cccc(F)c1 | 3%
O=C(NCC(c1ccco1)N1CCc2ccccc2C1)c1ccccc1 (stereo not given) | -11%
CC1Cc2cc(/C(O)=C3/C(=O)C(=O)N(CCN4CCOCC4)C3c3cccc(Cl)c3)ccc2O1 (stereo not given) | 2%
O=C1CN(c2ccc(Br)cc2)C(=O)N1CC(=O)N1CCCc2ccccc21 | -4%
